NPYLR7 ag = mosquito NPYLR7 agonism; HEK293T NPYLR7/Galpha15, GCaMP6s calcium fluorescence; activation, % at 10 µM; 270,000 compounds, 0.15% hits; in the data active = activation above about 40%;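 also: 0% = vehicle and 100% = reference agonist at the receptor; some compounds past the cut are filed as inactive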
NPYLR7 ag max-min = also measured in NPYLR7 ag; calls as there; activation, %; measured here: Max-Min RFU normalised activation; some inactives read as strong as hits;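 span of the calcium signal over five minutes; 0% = vehicle and 100% = native peptide agonist; compound fluorescence can raise it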
* marks the source's active call; other numbers are inactive results; & = joins results of further samples.

canonical_smiles,NPYLR7 ag,NPYLR7 ag max-min
C#CCNC(=O)N1CCC(C2(C)OCCO2)CC1,0,-1
CC(Cc1ccc(Br)cc1)NC(=O)C1CCCC1 (stereo unspecified),-3,-4
CCCN(CC1CC(c2ccc(OC)cc2)=NO1)C(=O)NC(C)C (stereo unspecified),-4,5
COc1ccc(N2C(=O)C(c3c(C(C)C)[nH]n(-c4ccc(F)cc4)c3=O)=C(N3CCCC3)C2=O)c(OC)c1,-3,-10
O=C(NC1CCN(c2ccccc2C(=O)N2CCN(C3CCCCCC3)CC2)CC1)c1ccc(Br)cc1,28,35
CC1CC(C(N)=O)c2ccccc2N1Cc1ccccc1C(F)(F)F (stereo unspecified),-1,-1
Cc1cnc(NC(=O)C2CCCN2c2nccs2)s1 (stereo unspecified),1,-1
CCCCCCCCS(=O)(=O)N(CC(=O)N(CCc1c[nH]c2ccccc12)Cc1ccc(OC)c(OC)c1)C1CC1,16,31
NS(=O)(=O)c1ccc(CCNC=C2CCC/C(=C\c3ccccc3)C2=O)cc1,4,-3
O=C1OC(c2cccc3ccccc23)=NC1=Cc1ccc2c(c1)OCO2,29,18
Cc1c(C)c(C)c(S(=O)(=O)N2CCC(c3nc(-c4ccc5c(c4)OCO5)no3)CC2)c(C)c1C,26,17
CCc1ccc(C(=O)N(Cc2ccc(OS(=O)(=O)c3ccc(F)cc3)cc2)C(C)CC)cc1 (stereo unspecified),5,6
Cc1csc(=O)n1CC(=O)OCc1csc(-c2ccccn2)n1,4,4
CN=c1scc(-c2cccc(Br)c2)n1N=Cc1cccc(O)c1O,15,9
CCn1ccnc1-c1nccn1Cc1ccccc1Cl,1,-9
Cc1ccc(C(=O)Nc2cc(C)nn2-c2nc(C)cc(=O)[nH]2)cc1,30,21
Fc1ccccc1-c1nnc(SCc2cccc3ccccc23)n1C1CC1,-4,3
COc1ccc2cc(S(=O)(=O)c3ccc(OC)c(OC)c3)c(=O)oc2c1,9,9
O=C(NCc1cccc(OCC(F)(F)F)c1)C1CC2CCCC(C1)C2=O (stereo unspecified),8,4
COc1cccc(-c2nc3ccccn3c2NC(=O)c2ccc(Cl)cc2Cl)c1,-15,-13

Complete entries, looked up by structure. Order of values: NPYLR7 ag | NPYLR7 ag max-min
Record of `CC(Cc1ccc(Br)cc1)NC(=O)C1CCCC1` (stereo unspecified) : -3 | -4
Record of `COc1ccc(N2C(=O)C(c3c(C(C)C)[nH]n(-c4ccc(F)cc4)c3=O)=C(N3CCCC3)C2=O)c(OC)c1` : -3 | -10
Record of `CN=c1scc(-c2cccc(Br)c2)n1N=Cc1cccc(O)c1O` : 15 | 9

Carrying on:
canonical_smiles,NPYLR7 ag,NPYLR7 ag max-min
CNc1cccc(-c2ccc(CC#N)cc2)n1,3,0
C=CCNc1nc2cc(-c3ccccc3OC)sc2c(=O)n1C,9,7
Cc1ccsc1-c1nc(Cn2ccnc2-c2ccccn2)c(C)o1,-6,-7
O=C(Cn1nc2c(c1NC(=O)c1ccc(C(F)(F)F)cc1)CSC2)NCC1CCCO1 (stereo unspecified),-6,-3
COc1ccc(CCN2C(=O)CSC2c2ccc(C(C)C)cc2)cc1OC (stereo unspecified),7,4
COc1cccc(C(=O)N(CC(=O)N(Cc2cccn2Cc2ccc(Br)cc2)C2CCCCC2)CC(C)C)c1,-1,0
Oc1ccc(Oc2ccc(C(F)(F)F)cn2)cc1,6,2
Cn1nnc2c(NCCCN3CCCC3=O)ncnc21,5,4
CCOC(=O)CSc1nc(=O)cc(N)n1CCc1ccccc1,-1,23
O=C1CC(C(=O)O)c2c(nc(N3CCCC3)[nH]c2=O)N1 (stereo unspecified),-8,-12
Cc1cccc(CSC(=Nc2ccccc2)NC#N)c1,1,-1
O=C1NC(=S)SC1=Cc1cc(Cl)c2c(c1)OCO2,3,2
CCc1nc2ccc(C(=O)NCCCN3CCCC3=O)cn2c1N(C=O)Cc1ccc(OC)cc1,20,20
Cn1ncc(Oc2ccc(F)cc2F)c(Nc2cccc(C(=O)N3CCOCC3)c2)c1=O,0,10
COc1ccc(OC)c(C2c3cccn3-c3ccccc3N2C(=O)CN(C(=O)c2ccc(Br)cc2)C(C)C)c1 (stereo unspecified),3,21
CN(C)CCNCc1csc(COc2ccccc2)n1,25,30
COC(=O)CSc1nc2sc3c(c2c(=O)n1C1CCCC1)CCC(C)C3 (stereo unspecified),-3,-2
COc1ccccc1NC(=O)Nc1c(-c2ccccc2)nn(C(C)(C)C)c1N,6,3
CCOC(=O)N1CCN(C(=O)CSc2nc3c([nH]c4ccccc43)c(=O)n2CC)CC1,-2,-1
COc1ccccc1CN(CCC(C)C)CC(O)COc1ccccc1 (stereo unspecified),14,22

An excerpt from above in order of SMILES length, descending:
canonical_smiles,NPYLR7 ag,NPYLR7 ag max-min
COc1ccc(N2C(=O)C(c3c(C(C)C)[nH]n(-c4ccc(F)cc4)c3=O)=C(N3CCCC3)C2=O)c(OC)c1,-3,-10
CCCCCCCCS(=O)(=O)N(CC(=O)N(CCc1c[nH]c2ccccc12)Cc1ccc(OC)c(OC)c1)C1CC1,16,31
CCc1ccc(C(=O)N(Cc2ccc(OS(=O)(=O)c3ccc(F)cc3)cc2)C(C)CC)cc1 (stereo unspecified),5,6
COc1ccc2cc(S(=O)(=O)c3ccc(OC)c(OC)c3)c(=O)oc2c1,9,9
COc1ccc(CCN2C(=O)CSC2c2ccc(C(C)C)cc2)cc1OC (stereo unspecified),7,4
O=C1CC(C(=O)O)c2c(nc(N3CCCC3)[nH]c2=O)N1 (stereo unspecified),-8,-12

(continued)
canonical_smiles,NPYLR7 ag,NPYLR7 ag max-min
CCOCCOC(=NC(=O)c1cccs1)N(C)C1CCN(C)CC1,0,6
O=C(NCC1CCCO1)c1coc(CN(CCc2c[nH]c3ccccc23)Cc2ccccc2Cl)n1 (stereo unspecified),17,14
Clc1ccc(Cn2ccnc2CNCC2CC2)c(Cl)c1,2,3
CCOCCn1c(C2CC(=O)N(c3ccc(CC)cc3)C2)nc2ccccc21 (stereo unspecified),-1,-2
COc1ccc(F)cc1COC(=O)c1ccc(C)c(O)c1,2,1
NC(=O)C1CCCCN1C(=O)c1ccc(Br)s1 (stereo unspecified),7,2
Cn1c(CN2CCCC2c2ccsc2)nc2cc(Cl)ccc21 (stereo unspecified),8,7
CCCCNc1nccnc1-c1cccc(C=O)c1,-2,-4
CC(C)(C#N)C(=O)Nc1ccc(Sc2nncs2)cc1,9,4
Cc1ccc(S(=O)(=O)NC(=O)C2(C)CCN2C(=O)C2(c3ccccc3)CCCC2)nc1 (stereo unspecified),9,8
Cc1ccc(C)c(OCC(O)CN2C(=O)NC(C)(C3CC3)C2=O)c1 (stereo unspecified),7,12
CCOC(=O)Cn1c(=NC(=O)c2ccn(CC)n2)sc2c(C)cc(C)cc21,-2,-4
NC(=O)c1sc2nc3c(c(-c4cccs4)c2c1N)CCCCC3,7,10
O=c1ccc(-c2ccco2)nn1CCCNS(=O)(=O)c1ccc2c(c1)OCCO2,5,4
CC(CNC(=O)c1cccc(N(C)C)c1)N1CCOCC1C (stereo unspecified),9,9
Cc1nc2ccccn2c1P(c1ccccc1)c1ccccc1,-2,-2
C=CCc1cccc(C=Nc2cc(NC(C)=O)c(Cl)cc2Cl)c1O,-11,-18
COc1ccc(Cl)cc1S(=O)(=O)N1CCN(Cc2cc(=O)c(OCc3cc(C)cc(C)c3)co2)CC1,3,1
COc1cccc(-n2nnc3c(=O)n(CC(=O)N4CCOCC4)cnc32)c1,7,8
O=C(c1ccco1)N(Cc1ccco1)Cc1nccn1Cc1cccc(C(F)(F)F)c1,-3,2

The listing continues:
Value order – NPYLR7 ag | NPYLR7 ag max-min
- CC(=O)c1ccc(-c2nnn(Cc3ccc(C)cc3)n2)cc1
 : -6 | -6
- CCn1nc(C)c(CN2CC[C@@H](N3CCN(c4ccccn4)CC3)[C@H](O)C2)c1C
 : 13 | 14
- Oc1[nH]c2ccc(Br)cc2c1N=Nc1ccccn1
 : -7 | -12
- Cc1cccc(NC(=O)CSc2ccc3nnc(-c4ccncc4)n3n2)c1
 : -9 | -8
- Cc1ccc(CN(C)C(=O)Nc2ccccc2-n2cncn2)cc1
 : -2 | -3
- CN(C)c1ccc(N2C(=O)CSC2c2cccc(NC(=O)c3cccc4ccccc34)c2)cc1 (stereo unspecified)
 : -10 | 4
- CC1CN(c2cc(Cl)nc(SCC(=O)N3CCN(c4cccc(C(F)(F)F)c4)CC3)n2)CCN1C(=O)C1CCCCC1 (stereo unspecified)
 : 1 | 6
- COc1ccc(N2C(=O)/C(=C/c3ccc(N(C)C)cc3)C(=O)NC2=S)cc1
 : 7 | 10
- C=C(C)CSc1nc(N2CCOCC2)c2c(c1C#N)CC(C)(C)OC2
 : 0 | -1
- Cc1c(C(=O)NCc2ccc(C#N)cc2)sc(=O)n1Cc1ccncc1
 : 6 | 2
- C=CC(=O)Nc1cccc(Oc2nc(Nc3ccc(N4CCN(C)CC4)cc3)ncc2Cl)c1
 : -3 | -10
- CN(C)CCC(c1ccccc1)c1ccccn1 (stereo unspecified)
 : -2&-1&-2&1 | 0&-7&-3&13
- CCOC(=O)c1nn(-c2ccc(C)cc2)c(=O)cc1N1CCCCC1
 : 7 | 4
- CC(C)Oc1cccc(C(=O)C2CCCN(C(=O)Cn3cnc4ccccc4c3=O)C2)c1 (stereo unspecified)
 : 15 | 15
- Cc1ccc(-c2nc(OCC(C)C)nn2-c2ccc(NC(=O)CSc3ccccc3)cc2)cc1
 : 15 | 11
- COc1cccc(-c2nc(C(N)=O)c3[nH]c(=O)n(-c4ccc(C(C)(C)C)cc4)c3n2)c1OC
 : -4 | -6
- C=CCn1c(N2CCCCCC2)nc2c1c(=O)n(C)c(=O)n2C
 : 5 | 1
- COC(=O)C(=O)N1CCC(c2nc(-c3ccncc3)no2)CC1
 : 3 | -2
- CCc1cc(N2CC[C@@H](N3CCC(O)CC3)[C@H](O)C2)nc(N2CCCCC2)n1
 : 2 | 2
- CC1(C(=O)O)CCN1C(=O)/C=C/c1ccccc1 (stereo unspecified)
 : 1 | 0
- O=c1c(N=Nc2cccc(Cl)c2)c(-c2ccccc2)[nH]n1-c1nc(-c2ccccc2)cs1
 : 0 | -5
- Cc1cc(N(C)C)nc(NCCNC(=O)Nc2ccccc2Cl)n1
 : 0 | -3
- CCCNC(=O)N(Cc1ccco1)Cc1nccn1Cc1ccc(Cl)cc1Cl
 : 21 | 29
- COc1ccc2cc(C(=O)Nc3ccc(C)cc3)c(=O)oc2c1
 : 11 | 3
- COC(=O)/C(C#N)=C/c1c(Oc2ccc(C)cc2)nc2ccccn2c1=O
 : 10 | 12
- COc1ccc(-n2cc(CNC3CC3)c(-c3ccccc3Cl)n2)cc1
 : 1 | -4
- COCCCN(Cc1ccc(C(O)(c2ccc(OC)cc2)c2ccc(OC)cc2)o1)Cc1ccccc1OC
 : -1 | 6
- O=C(NC1CCc2ccccc21)c1ccc(-c2ccc(Oc3ccccc3)cc2)s1 (stereo unspecified)
 : 22 | 12
- CNC(=O)C1=NN(c2ccccc2)C(c2ccccc2)C1 (stereo unspecified)
 : -1 | -2
- CC(=O)Oc1ccccc1Cn1cc(C(=O)NCc2cccs2)sc1=O
 : 4 | -1
- COc1ccc(-c2nc(CSCc3ccc(F)cc3)cs2)cc1OC
 : 5 | 4
- COC(C)(C)Cn1ccnc1-c1cc(F)ccc1-n1nc(C)cc1C
 : -8 | -9
- O=S(=O)(c1ccc2ccccc2c1)N1CCN(C2CCCC2)CC1
 : 8 | 2
- CC(C)c1cc(Oc2ccccc2Cl)nc(SCc2ccc(F)cc2F)n1
 : 2 | 12
- CCC(=O)Nc1ccc(C(=O)NCCNS(=O)(=O)c2ccc(C)cc2OC)cc1
 : -10 | -10
- CC(=O)Nc1ccc(C)c(S(=O)(=O)Oc2ccccc2F)c1
 : 4 | 2
- COCCN1C(=O)C(=Cc2c(NCCCO)nc3ccccn3c2=O)SC1=S
 : 11 | 19
- CNC(=O)c1ccccc1Sc1ccc2c(/C=C/c3ccccn3)n[nH]c2c1
 : -6 | -6
- Cc1cc(N2CCCN(Cc3ccnc(C(C)C)n3)CC2)ccn1
 : 10 | 8
- O=C(CC(c1cccc([N+](=O)[O-])c1)c1c[nH]c2ccccc12)NCc1ccc(F)cc1 (stereo unspecified)
 : -1 | 5
- Cc1ccc(-c2cncc(C(=O)N3CCOCC3)n2)c(-n2nc(C)cc2C)c1
 : 1 | -2
- Cc1cccc2c(=O)n3cc(C(=O)c4ccccc4O)cc(Cl)c3nc12
 : 10 | 7
- CC(C)Nc1ncccc1C(=O)NCCc1cccnc1
 : 3 | 3
- CC(C)(O)C#Cc1ccccc1C(=O)NC(CSCc1ccccc1)C(=O)O (stereo unspecified)
 : -1 | 25
- O=C(c1cc(Cl)cc(Cl)c1)N1CCN(c2nccc(-c3ccc(N4CCOCC4)cc3)n2)CC1
 : 5 | 0
- COc1ccccc1-c1cccc(C(=O)N2CCCC(O)(CO)CC2)c1 (stereo unspecified)
 : 8 | 4
- CCOC(=O)c1c(NC(=O)c2cccc(F)c2)sc(C(=O)Nc2ccccc2OC)c1C
 : -5 | -13
- Cc1ccccc1CNc1ccccc1C(N)=O
 : -3 | -4
- Cc1nc2cc3c(cc2n1CC(O)CN1CCC(C)CC1)OCCO3 (stereo unspecified)
 : -4 | -1
- CCOC(=O)c1c(-c2ccccc2)c2cc(Cl)ccc2[nH]c1=O
 : -2 | -5

Individual results from above.
For NPYLR7 ag, COc1ccccc1-c1cccc(C(=O)N2CCCC(O)(CO)CC2)c1 (stereo unspecified) reads 8
For NPYLR7 ag max-min, CCOC(=O)c1c(-c2ccccc2)c2cc(Cl)ccc2[nH]c1=O reads -5

Remaining list, next part.
Value order – NPYLR7 ag | NPYLR7 ag max-min
- CC1CCCCC1OCCN1C(C(N)=O)CC2CCCCC21 (stereo unspecified)
 : 2 | 1
- CC1=C(C(=O)Nc2ccc(F)c(F)c2)C(c2cccc(C#N)c2)N(C)C(=O)N1C (stereo unspecified)
 : 5 | 6
- COc1cccc(Cc2nsc(Oc3ccc(CC(=O)NCCc4ccc(OC)c(OC)c4)cc3)n2)c1
 : 3 | 3
- O=C1CSC(=S)N1c1ccc2c(c1)OCCO2
 : -10 | -19
- Cc1ccccc1C(NC(=O)C1CCN(Cc2cccc(C(F)(F)F)c2)CC1)c1ccsc1 (stereo unspecified)
 : 6 | -4
- Cc1ccccc1-c1noc(CS(=O)Cc2cccc(F)c2)n1 (stereo unspecified)
 : 3 | 2

Screening results: PubChem, Fisher Drug Discovery Resource Center

The list is partial, so the mix of outcomes need not match the whole.
